# Rango dissoc inh: qHTS Assay for Inhibitors of RanGTP induced Rango (Ran-regulated importin-beta cargo) - Importin beta complex dissociation | Snurportin-1 (Homo sapiens) + GTP-binding nuclear protein Ran (Homo sapiens) + Importin … | actives 0.071% (n = 340,000) | Potency, µM (highest dose often 46.1 µM), for inactives: top-dose activity change, negative = inhibition | AID 540253, 2011 | Biochemical FRET Rango-importin beta, RanGTP-induced dissociation; active means falling FRET ratio curve, often poorly fitted, with flat reads before Ran was added; inconclusive means other falling curves, or compound fluorescence or quenching; inactive means flat or rising ratio curve;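 further: potency means the concentration at half of the fitted maximal effect; % of control where 0% means no effect; nearly all actives have a fitted effect of over 45% in size; -100% = wells without RanGTP and RCC1; the record marks most hits as doubtful in a second field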
#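 Recombinant Rango FRET biosensor (EYFP–snurportin 1 IBB–cerulean CFP10) at 0.1 uM premixed with 0.25 uM importin beta in PBS, 1 mM DTT, 0.02% Tween-20, 0.1% BSA. Compound added 5 min; RanGTP-RCC1 (0.6 uM Ran, 2 mM GTP, 0.2 uM RCC1) then triggers release, read at 45 min.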
# miR-21 FLuc: qHTS Assay for Modulators of miRNAs and/orActivators of miR-21 | HeLa miR-21 FLuc reporter, luciferase, 48 h | 340,000 tested, under 10 active | Potency, µM (series often up to 38.3 µM), inactives show at the top dose reporter change, positive = more light; active = well fitted rising curve with a large enough effect; inconclusive = small, poorly fitted or top-dose-only effect; inactive = no such curve, though single readings can be large or run the other way;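 further: % of control where 0% means no effect; miR-21 action dims this reporter so a rising signal means less miR-21 action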
#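 Compounds were titrated across several concentrations (up to approximately 40 uM) and incubated 48 hours with HeLa miR-21-FLuc reporter cells (miR-21 target sequence downstream of FLuc, endogenous miR-21). Readout was firefly luciferase luminescence after lytic detection reagent.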
# Rango complex inh: qHTS Assay for Inhibitors of Rango (Ran-regulated importin-beta cargo) - Importin beta complex formation; Potency, µM (top dose mostly 92.2 µM), for inactives: at the highest dose inhibition of complex formation; actives 0.031% (n = 340,000); Rango CFP/YFP FRET sensor + importin beta, 45 min; active = rising FRET ratio curve, often small or poorly fitted; inconclusive = mostly compound fluorescence or quenching in the first reads; inactive = flat curves in all reads;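 further: potency means the concentration at half of the fitted maximal effect; 0% = DMSO wells and 100% = buffer wells lacking importin beta; nearly all actives have a fitted effect of over 15% in size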
#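 Inhibition scored from the CFP 486 nm/YFP 530 nm FRET ratio 45 min after adding 0.125 microM importin beta to 50 nM Rango biosensor preincubated 5 min with compound (room temperature, PBS with DTT, Tween-20, BSA). No-importin wells as positive control.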
# GLA inh pH 4.5: qHTS Assay for Inhibitors of Human alpha-Galactosidase at pH 4.5; Alpha-galactosidase A (Homo sapiens), P06280; 230,000 tested, under 10 active; activity change, negative = inhibition, % at 105 µM; purified enzyme, 4-MU-alpha-Gal fluorescence, pH 4.5; inconclusive = small, poorly fitted or top-dose-only inhibition, or a rising curve; inactive = flat fitted curve, though single readings scatter; no compound was filed as active;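 further: 0% = full activity with enzyme and -100% = basal without enzyme; dose as in the result columns while the protocol names 77 µM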
# Target sequence (P06280 whole entry, looked up): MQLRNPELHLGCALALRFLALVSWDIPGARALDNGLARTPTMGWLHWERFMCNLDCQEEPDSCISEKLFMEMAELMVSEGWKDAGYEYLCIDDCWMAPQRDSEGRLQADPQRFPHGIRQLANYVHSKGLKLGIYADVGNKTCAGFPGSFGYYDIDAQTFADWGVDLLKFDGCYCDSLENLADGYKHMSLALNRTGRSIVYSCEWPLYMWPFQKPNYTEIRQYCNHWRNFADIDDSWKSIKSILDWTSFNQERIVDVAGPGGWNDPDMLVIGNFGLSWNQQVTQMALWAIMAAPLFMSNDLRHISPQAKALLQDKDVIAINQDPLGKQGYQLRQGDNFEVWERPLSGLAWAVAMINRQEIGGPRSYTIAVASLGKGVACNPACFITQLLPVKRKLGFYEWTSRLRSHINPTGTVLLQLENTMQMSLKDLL
# * = called active by the depositor; u = inconclusive; x = not tested or not shown; & = joins results of further samples; [ ] = remark or other dose.
SMILES,Rango dissoc inh,miR-21 FLuc,Rango complex inh,GLA inh pH 4.5
O=C(Cn1c(=O)n(CC2CCCO2)c(=O)c2ccccc21)N1CCN(c2ccccc2)CC1 (centres undefined),0.6%,0.0%,-5.4%,-6.0
Cc1cc(C)cc(C(=O)O/N=C(\N)c2ccc(Br)cc2)c1,1.2%,-2.3%,4.1%,-2.0
S=C1SCN(Cc2ccccn2)CN1Cc1ccco1,-4.6%,-0.6%,-0.7%,8.0
O=C(Cc1ccccc1)Nc1ccc(NC(=O)c2cccnc2)cc1,1.6%,0.7%,-3.4%,x
O=C(O)c1cn(-c2ccccc2)nc1-c1ccc(Cl)cc1,18.2%,x,-1.3%,x
CCOC(=O)Cn1c(C)cc(=O)c2ccccc21,-7.2%,4.1%,-1.8%,x
O=C(COc1ccccc1[N+](=O)[O-])Nc1ccc(Br)cc1,-15.6%,-75.8%,-6.4%,-11.3
C=CCCN([C@@H](C)C(=O)OC)S(=O)(=O)c1ccccc1Br,-10.8%,0.8%,0.9%,7.9
CC(C)CC(c1nnnn1Cc1ccc(F)cc1)N1CCC(C(N)=O)CC1 (centres undefined),0.8%,3.0%,2.5%,-7.2
CCN(Cc1cc(=O)n2ccsc2n1)Cc1nc2ccccc2c(=O)[nH]1,2.7%,0.1%,-2.4%,1.1
CCCNC(=O)c1ccc2c(c1)nc(C)n2-c1cccc(Cl)c1,1.7%,-14.6%,1.5%,x
COCCn1c(=O)[nH]c2cc(C(=O)Nc3ccc(OC)c(Cl)c3)ccc2c1=O,-7.5%,8.1%,-0.4%,x
CCOC(=O)c1oc2c(c1C)C(=O)CCC2,10.2%,-9.2%,-1.4%,-3.9
O=C(Oc1ccc(Br)cc1C(=S)N1CCOCC1)c1ccc(F)cc1,20.5%,-1.7%,-0.7%,x
N#Cc1ccc(CC(=O)c2ccccc2)[nH]c1=O,u,x,u,x
Nc1cccc(C(=O)OCC(=O)NC2CCCc3ccccc32)c1 (centres undefined),0.1%,-2.4%,-0.6%,3.1
COc1ccc(C(=O)/C=C/Nc2ccc(C)cn2)cc1OC,-14.3%,-85.3%,u,-5.4
COc1ccc(C2=CSC3=NCCN23)cc1OC,0.9%,0.7%,-4.6%,x
Cc1ccccc1OCC(=O)OCC(=O)NC1CC1,4.3%,x,-3.2%,x
CCCCCCNC(=O)CC(c1ccccc1)c1cc(Br)ccc1O (centres undefined),-0.2%,u,4.4%,4.8
O=C(O)c1ccccc1S,x,-0.2%,x,-2.8
CCOC(=O)N1CCC(NC(=O)CCC(=O)N2CC(C)Oc3ccccc32)CC1 (centres undefined),-8.0%,-0.4%,-4.8%,3.5
Cc1ccc(-n2c(SCC(=O)NC3CCS(=O)(=O)C3)nc3ccccc3c2=O)cc1C (centres undefined),-21.6%,x,-1.5%,x
CC1CCCN(C(=O)C(=O)c2cn(CC(=O)N3CCCCCC3)c3ccccc23)C1 (centres undefined),0.5%,3.7%,1.0%,x
CC(C)CNC(=O)COC(=O)c1cccc(S(=O)(=O)NCC(F)(F)F)c1,5.2%,-1.3%,-1.0%,2.0
CN(C)CCCN1c2ccccc2Sc2ccc3ccccc3c21,-13.1%,x,0.3%,x
O=C(CCCCCn1c(=O)[nH]c2ccccc2c1=O)N1CCN(Cc2ccc3c(c2)OCO3)CC1,2.7%,19.9%,0.6%,2.5
CC(C[N+](C)(C)C)OC(N)=O (centres undefined),6.0%,-0.8%,-9.3%,3.6&-3.6
COc1ccccc1C(=O)Nn1c(C2CCC2)nc2ccccc2c1=O,11.7%,-9.8%,-2.7%,4.2
COCc1nnc(NS(=O)(=O)c2ccccc2)s1,10.5%,3.2%,1.9%,3.4
NS(=O)(=O)c1ccc(CNC(=O)c2ccc(C(=O)c3ccccc3)cc2)cc1,-0.8%,x,3.3%,x
CNC(=O)CSc1nc2c([nH]c3ccccc32)c(=O)n1CCOC,3.7%,2.2%,-2.4%,3.5
O=C(Nc1cccc(-c2cnc3ccccc3n2)c1)c1ccco1,-14.1%,-25.2%,1.3%,-5.2
COc1ccc(NC(=O)C(NCC(C)C)c2ccccc2)cc1Cl (centres undefined),6.0%,-0.1%,-2.1%,9.4
CCOC(=O)N1CCN(CCC(=O)Nc2ccc(C)cc2)CC1,28.2%,-2.5%,1.7%,9.2
CCC1Oc2ccccc2N(CC(=O)NCCCN2CCC(C)CC2)C1=O (centres undefined),3.0%,-5.2%,-3.8%,-11.2
CCN(c1ccccc1)S(=O)(=O)c1ccc(C(=O)Nc2ccc(C)cn2)cc1,-10.0%,x,3.4%,x
COC(=O)c1sccc1NC(=O)c1ccc(OC)c(OC)c1,12.6%,-5.5%,-1.6%,7.1
O=C(CN(Cc1ccccc1)C(=O)c1ccc2c(c1)OCCO2)NCc1ccc2c(c1)OCO2,8.4%,2.4%,-0.1%,0.9
CCc1ccc(OCc2nnc(SCC(=O)N3CCN(c4ccccc4)CC3)o2)cc1,-1.1%,-1.9%,1.7%,-2.0
O=C(NC1(C(F)(F)F)NC(=O)N(c2ccc(F)cc2)C1=O)c1ccncc1 (centres undefined),2.1%,-0.2%,2.7%,-1.4
O=C(O)CCn1cc(/C=C/C(=O)c2ccc(Cl)cc2)c(-c2ccc(Br)cc2)n1,-12.8%,28.4%,-2.0%,-3.7
O=C(O)/C=C/c1ccc(S(=O)(=O)Nc2ccc(OCc3ccccc3)cc2)cc1,-2.2%,-3.5%,4.3%,4.0
COc1ccc(C(C)(C)C)cc1NC(=O)CCn1[nH]c(=O)ccc1=O,-8.9%,x,-0.2%,x
COC(=O)c1ccc2c(c1)C(C)(C)C(/C=C/c1ccc(OC)c(OC)c1OC)=[N+]2C,-11.0%,u,u,-7.3
COC(=O)CNC(=O)/C=C/c1cc(Br)ccc1OC,-4.8%,-1.8%,-0.7%,-9.5
N/C(=N\OC(=O)c1cccs1)c1ccccc1,14.3%,-59.3%,0.3%,-6.1
O=C(NC(=S)Nc1ccc2[nH]c(=O)[nH]c2c1)c1ccccc1Cl,0.8%,0.6%,0.3%,x
COc1ccc(OCCCC(=O)NNC(=O)CCN2CCN(c3ccccc3)CC2)cc1,-5.9%,-0.2%,8.4%,x
COC(=O)c1c(C)[nH]c(C)c1-c1cccc([N+](=O)[O-])c1,-5.4%,0.8%,-0.1%,-11.3
NS(=O)(=O)c1cccc(NC(=O)COC(=O)CNC(=O)c2ccc(-c3ccccc3)cc2)c1,7.2%,x,3.5%,x
Cc1c(C)c2c(OCC(=O)N3CCC[C@H]3C(=O)O)cc3c(c2oc1=O)CCC(C)(C)O3,11.9%,1.7%,-3.2%,x
Cc1noc(C)c1NC(=O)Nc1ccc2c(c1)C(=O)N([C@H](C)CO)C[C@H](C)[C@@H](CN(C)S(=O)(=O)c1c(C)noc1C)O2,2.3%,x,-4.4%,x
O=C(CNC(=O)c1ccccc1F)NCCc1ccccc1F,-14.6%,x,2.6%,x
C/C(=N\N1C(=O)CSC1=S)c1ccc(Br)cc1,-8.1%,4.3%,1.8%,5.5
CCOC(=O)c1c(S(=O)(=O)NCC2CCN(Cc3cccc(F)c3)CC2)c(C)n(C)c1C,-16.4%,-28.8%,2.6%,x
Cc1cc(C)c(S(=O)(=O)Nc2cnc3ccccc3c2)c(C)c1,-14.6%,-0.2%,0.3%,x
O=[N+]([O-])c1ccccc1S(=O)(=O)N1CCN(c2ccc(F)cc2)CC1,0.2%,0.0%,0.0%,x
CC(=O)Nc1ccc(S(=O)(=O)N2CCN(C(=O)Cc3ccccc3)CC2)cc1,-20.6%,0.9%,4.9%,3.9
O=C(c1ccccc1)N1CCN(C(=S)NCc2ccc3c(c2)OCO3)CC1,3.1%,5.7%,-3.1%,1.8
# Additional entries:
SMILES,Rango dissoc inh,miR-21 FLuc,Rango complex inh,GLA inh pH 4.5
Cc1ccc(N2Cc3ccccc3C2=S)cc1,2.3%,-47.9%,-0.3%,-1.3
O=S(=O)(c1ccccc1)c1nc(-c2cccc(Cl)c2)oc1N1CCOCC1,-8.7%,-5.9%&-6.7%,1.7%,x
CC1=C(C(=O)N(C)Cc2ccccc2)C2(CCC(C)CC2)OC1=O (centres undefined),0.5%,-5.5%,0.9%,-23.1
Cc1ccc(-n2ncc3c2ncn2c(C)nnc32)cc1C,15.1%,-50.6%,-1.6%,2.6
Cc1ccc(S(=O)(=O)Cc2ccc(C(=O)NCc3ccc4c(c3)OCO4)o2)cc1,16.0%,5.7%,3.5%,-4.7
O=C(O)COCC(=O)NCc1csc2ccccc12,21.9%,3.7%,u,5.0
CCC(=O)NCCc1cc2ccc(C)cc2[nH]c1=O,-6.2%,-3.7%,-1.3%,14.8
C=C(c1ccc(OC)cc1)c1ccc(OC)cc1,6.2%,-10.1%,-0.5%,-7.0
O=C(NC1CCCc2ccccc21)c1ccc(=O)[nH]c1 (centres undefined),9.5%,5.7%,-1.7%,2.8
O=S(=O)(NCc1cccnc1)c1ccc(Cl)c(Cl)c1Cl,20.4%,-3.0%,10.3%,-0.8
CSc1nc(-c2ccccc2)nc(NC(=O)c2ccccc2)c1C(C)=O,12.0%,4.5%,-0.1%,1.0
COc1ccc(-c2nc(-c3cccs3)c(-c3cccs3)[nH]2)cc1OC,-11.2%,18.2%,-0.5%,5.3
CCN(CC(=O)Nc1ccccc1C(=O)OC)S(=O)(=O)c1ccccc1,0.6%,0.5%,-3.7%,-8.0
N#Cc1ccsc1NC(=O)CCN1CCN(C(c2ccccc2)c2ccccc2)CC1,13.1%,21.3%,-2.2%,x
NS(=O)(=O)c1ccc(CCNC(=O)CCCOc2ccccc2)cc1,-12.6%,-4.9%,-1.8%,-1.7

# Whole records, looked up by structure:
# Results for `O=S(=O)(NCc1cccnc1)c1ccc(Cl)c(Cl)c1Cl` = Rango dissoc inh = 20.4%; miR-21 FLuc = -3.0%; Rango complex inh = 10.3%; GLA inh pH 4.5 = -0.8
# Results for `CSc1nc(-c2ccccc2)nc(NC(=O)c2ccccc2)c1C(C)=O` = Rango dissoc inh = 12.0%; miR-21 FLuc = 4.5%; Rango complex inh = -0.1%; GLA inh pH 4.5 = 1.0

# 2 compounds from above, showing only miR-21 FLuc and Rango complex inh:
Structure	miR-21 FLuc	Rango complex inh
CCC(=O)NCCc1cc2ccc(C)cc2[nH]c1=O	-3.7%	-1.3%
C=C(c1ccc(OC)cc1)c1ccc(OC)cc1	-10.1%	-0.5%

# (further entries)
SMILES,Rango dissoc inh,miR-21 FLuc,Rango complex inh,GLA inh pH 4.5
Cc1ccc(S(=O)(=O)c2nc(S(C)(=O)=O)sc2N2CCCCC2C)cc1 (centres undefined),1.4%,16.2%,-0.2%,x
O=C(C1CCN(S(=O)(=O)c2ccccc2F)CC1)N1CCN(Cc2ccc3c(c2)OCO3)CC1,24.0%,x,0.6%,x
Cc1ccc(-n2c(O)c(/C=N/NC(=O)C3COc4ccccc4O3)c3ccccc3c2=O)cc1 (centres undefined),u,18.7%,u,-14.2
C=C(C)COc1ccc(-c2nc(N)ncc2-c2ccc(Cl)cc2)c(O)c1,7.7%,16.3%,-0.3%,x
O=C(CSc1c2c(nc3ccc(Cl)cc13)CCCC2)NCc1ccco1,-10.4%,18.6%,3.3%,7.5
O=C(Nc1ccccc1)C1CCCN(S(=O)(=O)c2ccc(-n3cnnn3)cc2)C1 (centres undefined),4.3%,-3.0%,7.9%,-3.2
CCOC(=O)Cc1n[nH]c(=O)c2ccccc12,0.7%,-2.4%,-4.4%,-19.4[21.1 µM]
c1cc(CN2CCN(C3CCCCCC3)CC2)ccn1,-0.5%,0.1%,4.2%,-16.3
CCC(=O)c1cn(CC(=O)Nc2ccc(C)cc2)c2ccccc12,-18.1%,6.2%,-3.4%,x
CC(C(=O)N1CCOCC1)N1C(=O)C2C3CC(C(Br)C3Br)C2C1=O (centres undefined),-8.4%,-3.6%,-2.3%,-4.3

# Some of the compounds tested (hit frequency here may not be typical).
